Vif A3G: HIV-1 Vif–A3G interaction blockers – biochemical, TR-FRET, GST-Vif 1-94, biotin-A3G peptide, dose response retest, primary screen (AID 1117319); actives 0.57% (n = 260,000); TR-FRET GST-Vif / biotin-A3G peptide binding; higher % means a stronger effect; test concentration not given here; strong numbers were not always called active; inhibition, %, or IC50 in µM where a hit was titrated;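 active means above the screen mean plus three standard deviations and confirmed in dose response; inconclusive means results disagree or hit not tested in dose response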;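 further: Vif residues 1-94 fused to GST binding biotinylated APOBEC3G peptide 110-148; 0% = full assay without inhibitor and 100% = GST in place of GST-Vif; retest series ran down from 100 µM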
T cruzi inh: T. cruzi replication inhibition | T. cruzi beta-gal in NIH3T3, luminescence, 90 h | inhibition, % (no concentration beside the values) | actives 1.4% (n = 300,000) | AID 1885;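 active means mean inhibition across valid replicates above about 55%, limit read from the data; inconclusive means mean below that limit but half or more replicates reach it; inactive means mean below it, under half of replicates reach it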;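 further: signal also drops with host cell toxicity which is not excluded here; 0% = plate median of DMSO wells and 100% = zero luminescence signal; higher percent means less beta-gal luminescence so fewer parasites; stock transfer was 50 nL into about 50 µL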
LANA-H2A inh: blocks KSHV LANA binding to histone H2A/H2B; Q9QR71; cell-free LANA-H2A/H2B peptide, fluorescence polarization; inhibition, % (concentration not given with the values); actives 0.6% (n = 320,000); in the data active means inhibition mostly above about 10%, no sharp cut-off; inactive means mostly below about 6.7%;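 further: stock transfer was 7.5 nL into about 10 µL; 0% = median of vehicle wells and 100% = median of positive control wells; one replicate is shown; the record names a cut of 25% in any replicate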
Calb FLC: affects C. albicans growth with fluconazole | AID 1979 | actives 0.57% (n = 300,000) | C. albicans CaCi-2 (fluconazole-resistant clinical isolate) + fluconazole, Alamar Blue growth, 48 h | growth inhibition, % (test concentration not listed);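 active means most replicates above 75%; inconclusive means exactly half above 75%; inactive means most below 75%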;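 further: all wells also contain fluconazole at 8 µg/ml as a sub-toxic cotreatment; 0% = median of DMSO wells and 100% = median of geldanamycin control wells; wells of about 8 µL received 7.5 nL stock; the first replicate is given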
Beta cell apopt: blocks beta cell apoptosis; INS-1E cytokine-induced death, ATP luminescence, 48 h; percent of positive-control rescue, neutral wells zero; protection from apoptosis, % (test concentration not listed); actives 0.8% (n = 300,000); AID 435005;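 active means all replicates at 75% or more, or half of them and the mean; inconclusive means half reach 75% but not the mean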;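 further: 0% = cytokine-treated negative control wells and 100% = positive control rescue; higher means more ATP so stronger rescue from cytokine killing; wells of about 40 µL received 100 nL stock; the first replicate is given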
Bfl-1 A1 inh: inhibitors of the anti-apoptotic protein A1, read as caspase activation; caspase activation, % (no concentration beside the values); MEF A1-2A-BIM cells, Caspase-Glo 3/7 luminescence, 3 h; percent of clofoctol response, vehicle zero; actives 0.066% (n = 330,000);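 active means over half of replicate activation scores above 10%, or exactly half above 10 with the replicate mean above 10; inconclusive means replicate mean below 10 yet half the replicates above 10; inactive means over half of replicates below 10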;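 further: wells of about 30 µL received 50 nL stock; many hits fall short of the cut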
RanGTP-Impb inh: inhibitors of RanGTP-importin-beta interaction, primary screen, biochemical, FRET, CFP-Ran, YFP-importin-beta, homogeneous | actives 1.1% (n = 300,000) | cell-free CFP-Ran/YFP-importin-beta FRET ratio | AID 2216 | inhibition, % (no concentration beside the values);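 active means most replicates above 15%; inconclusive means exactly half above 15%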;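 further: 0% = DMSO wells and 100% = Ran loaded with GDP instead of GTP; wells of about 40 µL received 100 nL stock; the first replicate is given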
AF4-AF9 inh: blocks AF4 peptide binding to human AF9; P42568; AlphaScreen, biotin-AF4 peptide binding to FLAG-AF9; inhibition, % at 10 µM; actives 0.47% (n = 350,000);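 active means every replicate reaching a set inhibition limit, whatever the replicate mean, cut at about 25% in these data; inconclusive means mean inhibition reaches that limit but some replicates miss it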;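 further: 0% = plate neutral control median and 100% = total signal loss; the record names both 10 and 1 µM as test concentration; the first replicate is given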
Target sequence (P42568 whole entry, looked up): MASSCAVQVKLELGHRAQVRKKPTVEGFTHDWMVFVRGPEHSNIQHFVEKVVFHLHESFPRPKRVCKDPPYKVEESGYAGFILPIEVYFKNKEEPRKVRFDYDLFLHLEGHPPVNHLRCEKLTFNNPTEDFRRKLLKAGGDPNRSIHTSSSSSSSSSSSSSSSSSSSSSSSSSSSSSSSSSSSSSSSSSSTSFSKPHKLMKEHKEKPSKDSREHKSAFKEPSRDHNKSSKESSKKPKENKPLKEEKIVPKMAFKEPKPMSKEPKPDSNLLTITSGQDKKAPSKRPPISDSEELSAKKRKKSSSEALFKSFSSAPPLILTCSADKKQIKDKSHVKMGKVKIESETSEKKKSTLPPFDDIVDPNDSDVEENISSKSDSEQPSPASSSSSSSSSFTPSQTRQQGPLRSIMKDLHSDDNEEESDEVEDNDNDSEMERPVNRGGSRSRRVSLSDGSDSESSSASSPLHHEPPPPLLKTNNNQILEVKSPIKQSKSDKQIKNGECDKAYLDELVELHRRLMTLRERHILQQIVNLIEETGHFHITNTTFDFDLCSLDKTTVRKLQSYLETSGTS
Numbers without * were called inactive; ? = inconclusive; . = no result given; & = joins results of further samples.

Below each compound: Vif A3G, T cruzi inh, LANA-H2A inh, Calb FLC, Beta cell apopt, Bfl-1 A1 inh, RanGTP-Impb inh, AF4-AF9 inh
- Cc1csc(NC(=O)c2nn(C)c(C)c2[N+](=O)[O-])n1
→ ., 8, -3.3, 14, -12, -0.2, -4.1, 0.1
- C=CCn1cccc(C(=O)Nc2ccc(OC)cc2)c1=O
→ -3%, 8, 2.1, -6, 2, -0.1, -3.3, -1.4
- CC1CCCN(C(=O)CSc2nnc(-c3cccnc3)n2C2CCCCC2)C1 (stereo not given)
→ 0%, -6, -5.1, 6, 0, 0.4, -3.1, .
- Cc1cc(Br)ccc1SCC(=O)Nc1cccnc1
→ ., -4, 1.4, 4, -5, -0.9, 7.0, 0.0
- O=C(c1cc(COc2ccc3ncccc3c2)on1)N1CCCC(O)C1 (stereo not given)
→ -3%, 1, -0.3, 4, 1, -0.4, 2.9, 1.2
- CCC(=O)Nc1ccccc1-c1nc2ccccc2[nH]c1=O
→ ., -18, 5.3, -2, ., 0.7, -1.6, 4.9
- Cc1nc2ccc(N=NC3=C(O)CCCC3=O)cc2s1
→ 20%, -8, 1.9, -8, ., -4.2, -2.5, .
- CCCc1nc(-c2ccc(-c3ccc(F)cc3)cc2)no1
→ 2%, -26, -4.4, -54, 8, -1.2, 0.4, .
- CN(CC(=O)Nc1cccc(F)c1)C(=O)CCc1nc2sc3c(c2c(=O)[nH]1)CCCC3
→ -59%, -10, -1.9, 10, ., -0.9, 5.0, 8.2
- CCCN(CCC)Cc1c(C(=O)N/N=C/c2cccs2)nnn1-c1nonc1N
→ ., 8, 6.4, 5, -3, -0.1, ?, 1.5
- CC1CCC(N2CCN(C(=O)c3ccccc3F)CC2)CC1 (stereo not given)
→ ., 17, -2.7, -3, -3, 2.5, -2.4, 1.4
- O=C(Nc1cccs1)N1CCN(c2ncccn2)CC1
→ 3%, -11, 6.4, -7, 8, 2.7, ?, 1.2
- CC1CCN(CCCNC(=O)CCc2nnc3n(CCc4ccccc4)c(=O)c4ccccc4n23)CC1
→ ., 13, -4.2, -5, 3, -0.6, -5.2, 0.9
- Cn1c(SCC(=O)Nc2ccc3c(c2)oc2ccccc23)nnc1-c1ccccc1
→ -5%&0%, -4, -1.3, 13, 5, 0.0, 1.8, .
- Cn1c(SCc2cc(=O)n3cc(Br)ccc3n2)nnc1C1COc2ccccc2O1 (stereo not given)
→ -8%&1%, 0, -1.7, 0, -6, 0.3, 1.4, .
- CCN1CCCC1Cn1cnc2c([nH]c3ccc(OC)cc32)c1=O (stereo not given)
→ 9%, 12, 2.0, 4, 0, 0.2, -3.9, -1.2
- CCCCCCCCCCCCN1C/C(=C\C(=O)OCC)c2ccccc2S1(=O)=O
→ ., ?, -1.4, -16, 1, -0.6, 9.2, -3.5
- Cc1cc(C)nc(N2CCCC(C(=O)Nc3ccc4nc(C)c(C)nc4c3)C2)n1 (stereo not given)
→ 3%, 4, 1.1, -6, 4, -0.4, 7.4, .
- Cc1cc2ncc(S(=O)(=O)c3ccccc3)c(N)n2n1
→ -8%, -15, 1.5, 19, -4, -0.3, -4.7, -1.6
- COc1ccc(C(C(=O)NCC2CCCO2)N(C(=O)CNC(=O)c2cccs2)c2ccccc2C)cc1OC (stereo not given)
→ -12%, 18, 0.2, 12, -3, 1.5, 0.1, -0.1
- O=C(Nc1ccccn1)c1cccc(S(=O)(=O)N2CCCCC2)c1
→ ?, -9, 1.8, 3, -5, 0.3, 3.6, .
- CC1CN(C(=S)c2cccc([N+](=O)[O-])c2)CC(C)O1 (stereo not given)
→ 5%, -18, -0.6, -10, -1, ?, 5.5, .
- O=[N+]([O-])c1ccc(Nc2ccccc2)nc1
→ ., 13, 2.8, -12, -1, -0.7, 1.0, -11
- Cc1ccccc1/C=C1\SC(=S)N(/N=C/c2cc([N+](=O)[O-])ccc2O)C1=O
→ 13%, 5, 4.6, 85*, 7, 0.4, -0.2, -3.6
- COc1ccc(/C=C/C(=O)Oc2ccc(/C=N/NC(=O)COc3c(C)cccc3C)cc2)cc1
→ 3%, 30, 2.2, 4, 4, -0.5, -5.4, .
- Cc1cc(C)c2[nH]c(=O)c(C(c3nnnn3Cc3ccc4c(c3)OCO4)N3CCCCC3)cc2c1 (stereo not given)
→ -5%, 24, -5.6, 14, -8, -0.5, 4.7, .
- COc1cccc(C(=O)NCCS(=O)(=O)N2CCC3(CC2)OCCO3)c1
→ 0%, -4, 0.4, -3, 1, 0.3, 1.0, -1.7
- Nc1c(C(=O)Nc2nc3ccccc3s2)sc2nc(-c3cccs3)ccc12
→ ?, 52, -0.2, -1, -10, -1.4, -39, .
- COc1cccc(CCNC(=O)c2cccc(NC(=O)C3=C(C)OCCS3)c2)c1
→ ., 7, 0.5, 4, 4, 0.0, 3.9, 2.9
- O=C(Nc1ccccc1)N(CCCN1CCOCC1)Cc1ccccc1F
→ 2%, -14, -1.5, -3, -10, 1.7, 4.8, .

An excerpt from above in order of SMILES length, descending.
Below each compound: Vif A3G, T cruzi inh, LANA-H2A inh, Calb FLC, Beta cell apopt, Bfl-1 A1 inh, RanGTP-Impb inh, AF4-AF9 inh
- Nc1c(C(=O)Nc2nc3ccccc3s2)sc2nc(-c3cccs3)ccc12
→ ?, 52, -0.2, -1, -10, -1.4, -39, .
- O=C(Nc1ccccn1)c1cccc(S(=O)(=O)N2CCCCC2)c1
→ ?, -9, 1.8, 3, -5, 0.3, 3.6, .
- CCC(=O)Nc1ccccc1-c1nc2ccccc2[nH]c1=O
→ ., -18, 5.3, -2, ., 0.7, -1.6, 4.9
- CC1CCC(N2CCN(C(=O)c3ccccc3F)CC2)CC1 (stereo not given)
→ ., 17, -2.7, -3, -3, 2.5, -2.4, 1.4

(continued)
Below each compound: Vif A3G, T cruzi inh, LANA-H2A inh, Calb FLC, Beta cell apopt, Bfl-1 A1 inh, RanGTP-Impb inh, AF4-AF9 inh
- COC(=O)CSC1=C(C#N)C(c2cccc(OC)c2)CC(=O)N1 (stereo not given)
→ 13%, -28, -4.3, 1, 5, -0.3, 2.0, -4.0
- COc1ccc(OC)c2sc(N3CCN(c4ccccc4)CC3)nc12
→ ., 2, 2.3, 12, -2, -1.1, 2.9, .
- CCOC(=O)C1=C(C)NC(=O)NC1c1cccs1 (stereo not given)
→ -14%, -7, 0.5, 1, -4, 0.3, 1.3, 0.1
- COc1ccccc1C(=O)N1CCN(Cc2c[nH]c3ccccc23)CC1
→ -1%, -7, -0.9, 0, 3, 1.0, -3.7, -4.7
- COc1cc(-c2nnc(COC(=O)c3cccn3C)o2)cc(OC)c1OC
→ 10%, 0, 5.6, -7, -3, -1.1, 3.8, -1.3
- Cc1ccc(NC(=O)CSc2nc(C)c(Cc3ccccc3)c(=O)[nH]2)cc1
→ -4%, -14, 4.4, 36, -2, 0.4, -0.4, -1.0
- COc1cc(CNC(C)C)ccc1OCC(=O)Nc1cccc2ccccc12
→ ., -15, 4.1, -5, -4, -0.5, 3.8, 2.0
- O=C(Nc1cccnc1)C1CC(c2ccc(Cl)c(Cl)c2)=NO1 (stereo not given)
→ -1%, 19, 2.6, -12, 2, -0.4, 4.4, .
- COC(=O)c1ccc(CN2C(=O)c3ccccc3S2(=O)=O)cc1
→ 15%, 2, 2.4, -2, 3, 0.7, -1.7, .
- CCOc1ccc(N2C(=O)CC(NC3CCN(C(=O)c4cccc(Cl)c4)CC3)C2=O)cc1 (stereo not given)
→ ., 8, 4.6, 2, -4, -0.2, -3.0, 0.7
- Cc1cc(S(=O)(=O)N2CCCC2)ccc1OCC(=O)Nc1ccc(C(N)=O)cc1
→ -6%, ., ., ., -3, -0.5, ., -5.0
- Cn1c(=O)[nH]c(=O)c2c1ncn2CCN1CCCCC1
→ -4%, 9, 4.1, 11, 3, 0.0, -2.0, .
- COc1ccc(C(=O)NCC(=O)N2CCN(c3ccccc3)CC2)cc1
→ ., -9, 4.6, 5, -6, 0.7, ?, -0.8
- CCCc1nc(C)c(-c2ccc(OC)c(OC)c2)c(=O)[nH]1
→ 25%, -7, 0.2, 2, 7, 0.1, 3.1, .
- CC(OC(=O)c1cc2c(s1)CCCCC2)C(=O)NC(N)=O (stereo not given)
→ 14%, -16, 2.3, ?, 0, 0.0, -2.4, 0.6
- CCOC(=O)c1cccc(NC(=O)CCc2nc(-c3ccccc3F)no2)c1
→ -12%, 2, 2.5, -14, -9, -1.6, 0.3, .
- CCc1cc2c(=O)c(-c3nc4ccccc4n3C)coc2c(CN2CCCC(C)C2)c1O (stereo not given)
→ -1%, 11, 1.9, -18, -3, -0.2, 7.1, -12
- COc1ccc(NC(=O)CN2CCCC(C)C2)c([N+](=O)[O-])c1 (stereo not given)
→ -4%, 4, -0.7, -12, -1, 1.2, 0.5, .
- CC(C)Sc1nnc([C@H](C)NC(=O)OC(C)(C)C)o1
→ 4%, -5, -3.5, -8, -5, -0.3, 6.9, .
- CC1CCCN(CCCNC(=O)c2ccc3c(c2)N(Cc2ccccc2F)C(=O)c2ccccc2S3(=O)=O)C1 (stereo not given)
→ ., 35, 13, -22, 0, 0.6, 3.7, 12
- O=C(CNS(=O)(=O)c1ccc(Br)s1)NCc1ccc(F)cc1
→ 19%, -6, 0.9, 1, -3, 0.2, -4.1, -3.0
- S=c1[nH]c2cc(-c3ccccc3)ccc2o1
→ 5%, -15, 0.3, 11, 3, -1.4, 2.3, 1.4
- CNC(=O)CSc1nc2nn(-c3ccccc3)c(=O)c-2c2n1CCCCC2
→ -1%, 21, -2.3, 5, 11, 0.2, -1.5, 5.1
- CCOCCCNC(=O)C1CCN(S(=O)(=O)N2CCCCC2)CC1
→ 0%, 7, 0.2, -5, 1, 1.7, 3.6, .
- CCOC(=O)c1ccc(-c2ccc3[nH]c4ccccc4c(=O)c3c2)cc1F
→ ., -3, 0.1, -5, -4, -0.1, ?, -3.8
- CCOC(=O)N1CCN(C(=O)c2ccccc2NC(=O)c2ccccc2Cl)CC1
→ ., 3, -3.4, -11, -5, -0.1, -0.4, 0.9
- O=c1c2c(nc3nc(NCc4ccc(Cl)cc4)[nH]n13)CCC2
→ -4%, -8, -5.7, 3, -3, 0.3, 0.3, -8.4
- O=C(CNC(=O)C12CC3CC(CC(C3)C1)C2)OCc1cc(=O)n2cc(Br)ccc2n1
→ 1%, -9, 3.9, -27, -5, -0.5, -0.1, -0.6

Compound activity deposited in PubChem by several laboratories.
